miR-21 reporter: miR-21 reporter, rising signal; HeLa miR-21 FLuc reporter, luciferase, 48 h; Potency, µM (doses to about 38.3 µM), inactives show at the top dose reporter change, positive = more light; 340,000 tested, under 10 active; active = well fitted rising curve with a large enough effect; inconclusive = small, poorly fitted or top-dose-only effect; inactive = no such curve, though single readings can be large or run the other way;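 also: % of control where 0% means no effect; miR-21 action dims this reporter so a rising signal means less miR-21 action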
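Luminescence from a firefly luciferase reporter carrying a miR-21 binding site downstream, stably expressed under a CMV promoter in HeLa cells that make miR-21 endogenously, reports miRNA modulation after 48 h compound exposure up to approximately 40uM final.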
Rango release inh: inhibitors of RanGTP-induced Rango-importin beta complex dissociation; Potency, µM (top dose mostly 46.1 µM), for the others: top-dose activity change, negative = inhibition; Biochemical FRET Rango-importin beta, RanGTP-induced dissociation; 0.071% of 340,000 active; active means falling FRET ratio curve, often poorly fitted, with flat reads before Ran was added; inconclusive means other falling curves, or compound fluorescence or quenching; inactive means flat or rising ratio curve;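 also: potency is read from the fitted curve at half-maximal effect; % of control where 0% means no effect; nearly all actives have a fitted effect of over 45% in size; -100% = wells without RanGTP and RCC1; the record marks most hits as doubtful in a second field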
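Rango (0.1 uM)–importin beta (0.25 uM) complex; RanGTP-RCC1 trigger; 45 min RT; CFP/YFP FRET read.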
Rango-impB inh: inhibitors of Rango-importin beta complex formation; Q14974; Rango CFP/YFP FRET sensor + importin beta, 45 min; Potency, µM (highest dose often 92.2 µM), for inactives: at the top dose inhibition of complex formation; 0.031% of 340,000 active; AID 540263; active = rising FRET ratio curve, often small or poorly fitted; inconclusive = mostly compound fluorescence or quenching in the first reads; inactive = flat curves in all reads;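 also: potency is read from the fitted curve at half-maximal effect; 0% = DMSO wells and 100% = buffer wells lacking importin beta; nearly all actives have a fitted effect of over 15% in size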
Target sequence (Q14974 whole entry, looked up): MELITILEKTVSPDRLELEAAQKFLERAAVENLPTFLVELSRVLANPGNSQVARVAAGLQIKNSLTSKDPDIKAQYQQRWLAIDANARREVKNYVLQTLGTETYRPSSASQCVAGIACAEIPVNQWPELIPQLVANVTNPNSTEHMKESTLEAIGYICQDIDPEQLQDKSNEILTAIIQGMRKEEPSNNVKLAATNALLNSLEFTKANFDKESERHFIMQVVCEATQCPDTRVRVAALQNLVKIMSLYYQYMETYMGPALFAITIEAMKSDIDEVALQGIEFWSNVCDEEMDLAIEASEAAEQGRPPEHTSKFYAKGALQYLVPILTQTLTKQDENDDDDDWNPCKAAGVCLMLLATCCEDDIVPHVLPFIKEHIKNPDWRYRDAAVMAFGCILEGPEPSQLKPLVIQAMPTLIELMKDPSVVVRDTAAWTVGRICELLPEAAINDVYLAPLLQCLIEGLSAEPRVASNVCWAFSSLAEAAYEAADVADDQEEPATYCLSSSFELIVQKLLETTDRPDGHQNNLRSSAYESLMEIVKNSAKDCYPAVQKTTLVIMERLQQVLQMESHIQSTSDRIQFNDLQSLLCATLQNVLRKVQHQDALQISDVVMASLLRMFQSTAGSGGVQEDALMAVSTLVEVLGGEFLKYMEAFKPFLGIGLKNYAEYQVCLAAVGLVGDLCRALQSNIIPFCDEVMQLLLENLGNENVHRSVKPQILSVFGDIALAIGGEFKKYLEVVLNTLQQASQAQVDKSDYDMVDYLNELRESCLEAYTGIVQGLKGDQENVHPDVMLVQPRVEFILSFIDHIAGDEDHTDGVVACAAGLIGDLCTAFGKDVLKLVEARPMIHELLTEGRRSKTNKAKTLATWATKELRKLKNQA
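FRET biosensor Rango (snurportin 1 IBB between N-terminal EYFP and C-terminal Cerulean), 50 nM in PBS/1 mM DTT/0.02% Tween-20/0.1% BSA, preincubated 5 min RT with compound; 0.125 microM importin beta added, 45 min RT, CFP/YFP FRET ratio read.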
GLA inh pH 4.5: blocks human alpha-galactosidase A at pH 4.5 | P06280 | purified enzyme, 4-MU-alpha-Gal fluorescence, pH 4.5 | activity change, negative = inhibition, % at 105 µM | 230,000 tested, under 10 active | AID 1467; inconclusive = small, poorly fitted or top-dose-only inhibition, or a rising curve; inactive = flat fitted curve, though single readings scatter; no compound was filed as active;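 also: 0% = full activity with enzyme and -100% = basal without enzyme; dose as in the result columns while the protocol names 77 µM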
An asterisk follows results filed as active; ? = inconclusive; · = no result given; & = joins results of further samples. The list is partial, so the mix of outcomes need not match the whole.

Sequence of screens – miR-21 reporter | Rango release inh | Rango-impB inh | GLA inh pH 4.5
> COc1ccc(C(=O)n2nc(C#N)c(C#N)c2N)cc1
→ 0% | -1% | 1.2% | -22
> CCNc1nc(SC(C)C(=O)OC)nc(N(C)C)n1 (stereo not given)
→ 1% | 1% | -0.2% | -1
> CCC(=O)Nc1ccc(NC(=O)CSc2nnnn2C(C)C)cc1
→ 0% | 1% | 0.1% | -2
> O=C1CCC(C(=O)N2CCCCCC2)CN1Cc1cccc(C(F)(F)F)c1 (stereo not given)
→ -5% | -17% | -3.5% | ·
> Cc1ccc(C2NC(c3ccc(C)cc3)C([N+](=O)[O-])C(C)(C)C2[N+](=O)[O-])cc1 (stereo not given)
→ -2% | -14% | -2.6% | -2
> COc1ccccc1N(CC(=O)Nc1ccccc1C(=O)NCC(C)C)S(C)(=O)=O
→ -5% | 19% | -0.7% | -6
> CCCn1nnc(NC(=O)c2ccccc2Cl)n1
→ -29% | 12% | 6.4% | -3
> COc1ccc(C(=O)N(C)CC(=O)Nc2cccc(F)c2)cc1S(=O)(=O)NC1CCCC1
→ · | 0% | ? | ·
> COc1cc(C(=O)NC(C)c2cc(C)ccc2C)ccc1OCC(=O)N1CCOCC1 (stereo not given)
→ · | 6% | -0.9% | ·
> Cc1nc2nc(SCC(=O)c3ccccc3)[nH]c2cc1Br
→ -16% | 0% | 0.4% | 0
> CC1CC2(C)C(=CC1=O)CCC1C2C(O)CC2(C)C1CCC2(O)C(=O)CO (stereo not given)
→ · | -2% | -0.8% | ·
> Clc1cccc(CN2CCCCCC2)c1Cl
→ -5% | -3% | -0.7% | ·
> COc1ccc(Nc2n[nH]c(N)c2C(N)=O)cc1
→ -9% | 0% | -0.9% | -2
> O=C(NCC1CCCO1)C(c1cccs1)N(Cc1ccccc1Cl)C(=O)c1ccc(-c2ccccc2)[nH]1 (stereo not given)
→ 10% | -6% | -1.9% | -13
> Cc1ccccc1N1C(=O)CC(N(O)c2ccccc2)C1=O (stereo not given)
→ -14% | -10% | ? | 4
> Cc1[nH]c2ccccc2c1C(=O)C(=O)NCCC1=CCCCC1
→ -9% | ? | 3.0% | -3
> COc1ccc(-c2ccc(C#N)c(SCC(=O)NCc3ccco3)n2)cc1OC
→ -2% | 3% | ? | ?
> COc1ccc(-c2noc(CSc3ccc(C)cc3)n2)cc1
→ -18% | -8% | 0.7% | -6
> C[C@@H]1CN(S(=O)(=O)c2c(F)cccc2F)CCN1S(=O)(=O)c1ccc2c(c1)OCCO2
→ · | 1% | 0.4% | ·
> COc1ccc(/C=C(/NC(=O)c2cccc([N+](=O)[O-])c2)C(=O)O)cc1OC
→ -2% | 15% | -3.2% | 9
> CCCC(=O)Nc1ccc(C(=O)NNC(=O)c2ccccc2Br)cc1
→ -8% | 4% | 3.6% | -5
> COc1ccc(NC(=S)Nc2ccc(OCc3ccccc3)cc2)cc1OC
→ -9% | -8% | -0.5% | 1
> COc1ccc(OC)c(CCNC(=O)C2CCN(c3ncnc4c3nc3n4CCCCC3)CC2)c1
→ 0%&-1% | 7% | -2.8% | ·
> N#CC(=C1CCCC1)c1nc(-c2cc3ccccc3oc2=O)cs1
→ -36% | -16% | 0.4% | -1
> O=C(O)COc1ccc(NC(=O)c2ccco2)cc1
→ 1% | -6% | 3.9% | 2
> Nc1n[nH]c(C2CC2)c1N=Nc1ccc(Cl)cc1
→ 4% | 5% | 0.4% | 7
> Cc1ccc(-c2csc(NC(=O)C[n+]3cc(-c4ccccc4)n4c3CCC4)n2)cc1
→ -13% | 0% | -1.4% | 0
> O=C(CCc1ccccc1)Nc1ccc(NC(=O)c2ccco2)cc1
→ -24% | -25% | -0.4% | 5
> CCCCCCOc1ccc(OC(=O)c2cccnc2)cc1
→ -39% | 3% | 3.9% | 0
> CCOC(=O)N1CCN(CC(O)COc2ccc(CC)cc2)CC1 (stereo not given)
→ -4% | -13% | 4.1% | ·

Shown field by field: part of the list above
mol: O=C(O)COc1ccc(NC(=O)c2ccco2)cc1
  miR-21 reporter: 1%	Rango release inh: -6%	Rango-impB inh: 3.9%	GLA inh pH 4.5: 2

mol: Nc1n[nH]c(C2CC2)c1N=Nc1ccc(Cl)cc1
  miR-21 reporter: 4%	Rango release inh: 5%	Rango-impB inh: 0.4%	GLA inh pH 4.5: 7

mol: Cc1ccc(-c2csc(NC(=O)C[n+]3cc(-c4ccccc4)n4c3CCC4)n2)cc1
  miR-21 reporter: -13%	Rango release inh: 0%	Rango-impB inh: -1.4%	GLA inh pH 4.5: 0

Later entries
Sequence of screens – miR-21 reporter | Rango release inh | Rango-impB inh | GLA inh pH 4.5
> CC(=O)Nc1nnc(CCS(=O)(=O)c2ccc(Cl)cc2)s1
→ 3% | 0% | 1.7% | 5
> CC(C)Oc1ccc(S(=O)(=O)N2CCCCC2)cc1NC(=O)C1CCC1
→ · | 1% | 3.2% | ·
> CCc1cc(C(=O)N2CCN(c3ccccn3)CC2)sc1C
→ -10% | 2% | 2.0% | ·
> O=C(c1nc2nc(-c3ccc(Cl)cc3)cc(C(F)(F)F)n2n1)N1CCOCC1
→ -8% | -3% | -0.1% | -2
> O=C(CN1CCN(CCC(=O)Nc2ccccc2F)CC1)Nc1ccc(F)cc1
→ -10% | 13% | 1.1% | -2
> CCOc1ccc(S(=O)(=O)N2CCN(C(=O)CN3C(=O)NC(C)(C)C3=O)CC2)cc1
→ · | -6% | 0.2% | ·
> CCN(CC(=O)Nc1ccc([N+](=O)[O-])cc1OC)c1ccccc1
→ 0% | 11% | -4.2% | 1
> COc1cc(OC)cc(C(=O)N2CCN(C(=O)c3ccc(OC)c(OC)c3)CC2)c1
→ -2% | 0% | 2.7% | 8
> Cc1ccc(/C=C/C(=O)O)cc1S(=O)(=O)N1CCCc2ccccc21
→ -12% | 0% | -3.6% | -5
> COc1ccc(C(C(=O)NC2CCCCC2)N(C(=O)c2csnn2)C2CC2)cc1 (stereo not given)
→ -4% | -17% | 0.0% | ·
> Cc1ccccc1NS(=O)(=O)c1cc(C(=O)NCc2ccncc2)ccc1Cl
→ 5% | -1% | -2.4% | ·
> Cc1cccc(C(=O)NCC(=O)OCC(=O)N2CCc3ccccc32)c1
→ -7% | 13% | 1.2% | 1
> CCOc1ccc(CN(C)CC(=O)NNC(=O)c2ccc(Cl)cc2)cc1OC
→ -7% | -18% | -0.3% | -4
> COc1ccccc1CNC(=O)CCc1cn(C)c2ccccc12
→ 0% | 10% | 3.1% | ·
> COc1ccc(NC(=O)CN2CCN(CC(=O)Nc3ccc(OC)c(OC)c3)CC2)cc1
→ -7% | -1% | 0.6% | 5
> COCCCNC(=O)C[C@H]1C[C@H](C(=O)N(C(C)C)C(C)C)[C@@]2(C)c3[nH]c4cc(-c5ccco5)ccc4c3CCN2C1=O
→ · | ? | ? | ·
> COc1cc(-c2noc(C)c2C(=O)NCCc2cccs2)cc(OC)c1OC
→ · | -4% | 0.1% | ·
> COc1ccccc1/C=C(\NC(=O)c1ccccc1)C(=O)NCc1ccco1
→ -1% | -23% | 0.6% | ·
> COc1ccc(CN2C(=O)Cc3c2nc(N)c2c(N)nc(N4CCCCC4)c(C#N)c32)cc1
→ -5% | · | · | -18
> C=C(C)c1cccc(C(C)(C)NC(=O)N2CCN(CC)CC2)c1
→ -5% | -8% | -2.9% | 5
> CCOc1ccc(C(=O)NC(=S)Nc2ccc(N3CCOCC3)c(Cl)c2)cc1[N+](=O)[O-]
→ -8% | 8% | -0.3% | -4
> CC[n+]1c(/C=C(\C)Nc2ccccc2)sc2ccccc21
→ -13% | -2% | -0.7% | -5
> COc1ccc(N/N=C(\C#N)C(=N)N2CCCCC2)cc1
→ -74% | -7% | -1.1% | -18
> CC(/C=N/NC(=O)c1cccnc1)=C\c1ccco1
→ -12% | -20% | ? | 0
> Cc1ccc(C(=O)OCC(=O)Nc2sccc2C(N)=O)cc1NC(=O)c1ccco1
→ 18% | -15% | -0.6% | 7
> CC(CN1CCOCC1)OC(=O)C1COc2ccccc2O1 (stereo not given)
→ -2% | -12% | -4.1% | 7
> Cc1ccc(OCC(=O)Nc2ccc(CN3CCOCC3)cc2)cc1
→ -2% | 0% | 0.8% | ·
> COc1ccc(N=N/C(=C\O)C(=O)c2cccs2)cc1
→ 21% | 3% | -0.4% | 0
> CCc1ccccc1NS(=O)(=O)c1c(C(=O)N2CCCCCC2)c(C)n(C)c1C
→ -1% | 9% | -1.5% | ·
> O=C(c1cc(C2CC2)nc2ccccc12)N1N=C(C(F)F)CC1(O)C(F)F (stereo not given)
→ -4% | -8% | 1.9% | -5
> CCC(=O)N1CCc2cc(S(=O)(=O)CCC(=O)NCc3ccccc3OC)ccc21
→ 0%&-2% | -10% | 4.0% | ·
> O=S(=O)(c1ccc(Br)cc1)N1CCN(c2ccc3nnc(-c4ccccc4)n3n2)CC1
→ -5% | 26% | -14% | -4
> Cn1cc([N+](=O)[O-])c(C(=O)NC2CCCCCC2)n1
→ 0% | -2% | ? | ·
> COc1ccccc1C(=O)NCC(=O)N/N=C/c1cn[nH]c1-c1ccccc1
→ 6% | -9% | 1.7% | -5
> CC(C1CC1)N(Cc1ccccc1)C(=S)Nc1ccccc1Cl (stereo not given)
→ 6% | -1% | 1.3% | -11
> COc1ccc(C(=O)C2CCCN(S(=O)(=O)N(C)C)C2)c(C)c1 (stereo not given)
→ 0% | -5% | 2.7% | ·
> Cc1ccc(C(=O)N2CCCN(c3nc4cc5c(cc4cc3C#N)OCO5)CC2)cc1
→ 19% | ? | ? | ·
> CCCCNC(=O)OC(C)CNC(=O)OC (stereo not given)
→ 3% | -8% | -3.4% | 10
> CCCCN(C(=O)c1cc(S(=O)(=O)N2CCCCCC2)ccc1OC)c1c(N)n(CCC)c(=O)[nH]c1=O
→ · | 12% | 5.5% | ·
> Cc1ccc(OCCCn2c(=O)sc3ccccc32)cc1
→ -24% | -14% | 1.1% | -6
> O=C(CN1c2ccccc2Sc2ccccc21)NNC(=S)Nc1ccc(Cl)cc1
→ 9% | 18% | 1.0% | -6
> CCOC(=O)N1CCC(NC(=O)C2CCCN(Cc3nc(-c4cccc(C)c4)oc3C)C2)CC1 (stereo not given)
→ 25% | -4% | 0.0% | ·
> Cc1cc(=O)oc2cc(OC(C)C)ccc12
→ -33% | -8% | -5.7% | -2
> O=c1c2sc3nc(N4CCOCC4)c4c(c3c2ncn1C(c1ccccc1)c1ccccc1)CCCC4
→ · | 21% | -0.1% | ·
> COc1ccc2c(C(=O)CN3CCN(CCO)CC3)c[nH]c2c1
→ 1% | -13% | 0.5% | 1
> CC(=O)Nc1nc(C)c(CCC2OCCO2)c(=O)[nH]1
→ -4% | 0% | -1.1% | -5
> c1ccc(CN2CCN(c3ncccn3)CC2)nc1
→ -8% | · | · | 4
> Cc1ccc(-c2nn3c(C)nnc3c3ccccc23)cc1S(=O)(=O)NC(C)(C)CO
→ -22%&-30% | 1% | 2.7% | -7
> COc1ccc(NC(=O)C2CCC(CNc3c(N4CCCCC4)c(=O)c3=O)CC2)cc1OC (stereo not given)
→ -4% | -30%&-1% | -1.3%&-1.9% | -10
> O=C(NNC(=O)c1cccs1)c1ccco1
→ -3% | -9% | -1.0% | -2
> O=C1CSC(=S)N1N=Cc1cccc2ccccc12
→ · | -5% | -2.9% | ·
> O=C(C[n+]1cc(-c2ccc(Cl)cc2)n2c1CCC2)Nc1nc(-c2ccccc2)cs1
→ -8% | 1% | -1.9% | -5
> CSc1n[nH]c(-c2sccc2OCc2ccc(C)cc2)n1
→ 1% | -4% | -0.5% | 4
> CCNC(=S)N(CCc1c(C)[nH]c2ccc(Cl)cc12)Cc1cccnc1
→ -4% | 0% | -2.0% | ·
> Cn1c(=O)n(CC(N)=O)c(=O)c2c1nc1n2CCCN1Cc1ccccc1
→ -1% | 7% | -0.8% | ·
> O=C(COC(=O)C1CCN(c2ccc(C(F)(F)F)cn2)CC1)Nc1ccc(Cl)cc1
→ · | 0% | 0.9% | ·
> CN(C)CCCNC(=O)/C=C/c1ccc2c(c1)OCO2
→ -4% | -3% | -0.4% | 15
> O=C(Nc1ccc2c(c1)OCCO2)C1CCCC1
→ · | -1% | -0.6% | ·
> Cn1c(=O)c2c(nc(N3CCN(C(=O)c4ccco4)CC3)n2CCSc2ncccn2)n(C)c1=O
→ 0% | 1% | 4.0% | 3
> COc1ccc(C(CNC(=O)CNC(=O)c2ccccc2Cl)N2CCCC2)cc1 (stereo not given)
→ · | -3% | 0.7% | ·
> Cc1cccc(C(=O)N2CCN(c3ccc(N4CCOCC4)nn3)CC2)c1
→ 3% | -24% | ? | 6

Bioassay records from PubChem.
